# CBX7 AlphaScr: inhibitors of human CBX7 binding to H3K27me3 peptide; 66,000 compounds, 1.1% hits; AID 1224903; O95931; AlphaScreen His6-CBX7 / biotin-H3K27me3 peptide binding; hits give low values; normalised signal (fraction of DMSO) (test concentration not listed); in the data active = normalised signal below about 0.5;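 also: 100 nL library stock added to about 20 µL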
# Target sequence (O95931 whole entry, looked up): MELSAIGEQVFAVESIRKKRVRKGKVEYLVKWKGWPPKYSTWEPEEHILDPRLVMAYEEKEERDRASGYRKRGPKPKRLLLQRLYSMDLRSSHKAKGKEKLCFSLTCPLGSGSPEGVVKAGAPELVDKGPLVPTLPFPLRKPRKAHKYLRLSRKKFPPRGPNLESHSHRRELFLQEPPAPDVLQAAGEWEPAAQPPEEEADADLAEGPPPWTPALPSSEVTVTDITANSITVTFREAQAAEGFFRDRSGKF
# CBX7 AlphaScr z-score: further read-out of CBX7 AlphaScr, marked with its call; z-score; measured here: z-score of CBX7 signal; some inactives read as strong as hits; reference of the scale not given here;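 same signal on another scale; lower means less binding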
# Numbers without * were called inactive; & = joins results of further samples.
Molecule	CBX7 AlphaScr	CBX7 AlphaScr z-score
CCOC(=O)c1ccc(NC(=O)C2CCCN(S(=O)(=O)c3cccs3)C2)cc1 (stereo not drawn)	0.86	-0.185
COc1ccc(-n2c3c(cc(C(=O)NCCCN4CCOCC4)c2=O)C(=O)CC(C)(C)C3)cc1	1.03	0.729
Cc1cccc(NC(=O)Cn2c(C(F)(F)F)nc3ccccc32)c1C	0.945	-0.584
COc1ccc(NC(=O)C2CCN(S(=O)(=O)c3cnc[nH]3)CC2)cc1OC	0.92	-1.32
COc1ccc(Nc2ncnc3c2c(-c2ccccc2)cn3-c2ccc(F)cc2)cc1OC	0.972	-0.702
CCn1cc(C(=O)N2CCN(c3ccccc3F)CC2)c(=O)c2ccc(C)nc21	0.983	-0.181
CN(C(=O)c1ccc2c(=O)n3c(nc2c1)CCCCC3)c1ccc(F)cc1	0.851	-2.44
Cc1ccc2cc(CCNC(=O)c3ccc(C(F)(F)F)cc3)c(=O)[nH]c2c1	1.03	1.08
COc1cccc(NC(=O)CSc2nc3nc(C)c(Cc4cc(C)ccc4C)c(C)n3n2)c1	1.11	1.02
COc1ccc2cc(CCNC(=O)Cc3cccs3)c(=O)[nH]c2c1	0.991	-0.219
Cc1ccc(-n2c(=O)cc(N3CCN(Cc4ccccc4)CC3)[nH]c2=O)cc1	1.02	0.441
CCC(C)NC(=O)c1nn2c(C(F)(F)F)cc(-c3ccc(Cl)cc3)nc2c1Cl (stereo not drawn)	0.953	-0.606
Cc1ccc2cc(CCNC(=O)Cc3cccc4ccccc34)c(=O)[nH]c2c1C	1.08	1.57
Cc1ccc(CNC(=O)c2ccc3c(c2)N(Cc2cccc(Cl)c2)C(=O)c2ccccc2S3)cc1	1.01	0.0748
Cc1cccc(CN2CCN(CC(=O)NCCC3=CCCCC3)C2=O)c1	0.98	-0.401
Cc1ccc2nc(NC(N)=NS(=O)(=O)c3ccccc3)nc(C)c2c1	1.12	1.46
CCOc1cccc2cc(-c3nc4ccccc4[nH]3)c(=O)oc12	0.973	-0.49
N#Cc1ccc(C(=O)Nc2nc(-c3ccccc3)c(C(=O)c3ccccc3)s2)cc1	1.08	1.27
O=C1CCCC2=C1C(c1ccsc1)CC(=O)N2c1ccccc1C(F)(F)F (stereo not drawn)	1.18	1.68
CC1CCCCC1NC(=O)c1ccc2c(c1)N(Cc1ccccc1F)C(=O)CS2 (stereo not drawn)	1.14	2.19
CCN(c1ccc(C)c(C)c1)S(=O)(=O)c1ccc2c(c1)CCN2C(C)=O	1.09	0.652
COC(=O)c1c[nH]n2c(=O)c(Cc3ccccc3F)c(C)nc12	1.23	2.99
O=C(NCCN1CCOCC1)c1cc(-c2ccc(O)cc2)on1	0.993	-0.222
CCOc1ccccc1NC(=O)c1c(NC(=O)c2ccccc2)sc2c1CCCCC2	1.03	1.03
COc1cc(OC)c(NC2c3ccccc3C(=O)N2c2cc(C)ccn2)cc1Cl (stereo not drawn)	0.834	-5.9
CCN1CCN(c2cc(C)c3cc(NC(=O)CCC(=O)NCc4ccccc4OC)ccc3n2)CC1	1.01	0.127
Cc1ccc(CNC(=O)CSCc2nc(-c3cccc(F)c3)oc2C)cc1	0.982	-0.335
CCc1ccc2c(c1)c(=O)c(S(=O)(=O)c1ccccc1)cn2CC(=O)Nc1ccc(C)c(Cl)c1	0.878	-4
COCCNC(=O)C1CCN(c2nc3ccccc3n2Cc2ccc(F)cc2)CC1	0.796	-2.35
Cc1ccc(N(C(=O)c2ccccn2)C2(C(=O)Nc3c(C)cccc3C)CCCCC2)cc1	1.03&0.977	1.28&-0.649
CCOc1ccc2nc(N3CCC(C(=O)NCc4ccc(C)cc4)CC3)sc2c1	0.997	-0.0113
CCOc1ccc(C2CC(=O)c3c([nH]c(C(=O)OCCc4ccccc4)c3C)C2)cc1 (stereo not drawn)	1.03	0.377

# The final 4 records of the section above open the next one:
Molecule	CBX7 AlphaScr	CBX7 AlphaScr z-score
COCCNC(=O)C1CCN(c2nc3ccccc3n2Cc2ccc(F)cc2)CC1	0.796	-2.35
Cc1ccc(N(C(=O)c2ccccn2)C2(C(=O)Nc3c(C)cccc3C)CCCCC2)cc1	1.03&0.977	1.28&-0.649
CCOc1ccc2nc(N3CCC(C(=O)NCc4ccc(C)cc4)CC3)sc2c1	0.997	-0.0113
CCOc1ccc(C2CC(=O)c3c([nH]c(C(=O)OCCc4ccccc4)c3C)C2)cc1 (stereo not drawn)	1.03	0.377
CC1=Nc2cc(C(=O)NCCCOC(C)C)ccc2Sc2ccc(C)cc21	0.944	-1.15
Cc1ccc(S(=O)(=O)NC(C)C(c2cccs2)N2CCN(c3ccccc3)CC2)cc1 (stereo not drawn)	0.962	-0.93
O=C(NCC1COc2ccccc2O1)c1cc2c(s1)-c1ccccc1OC2 (stereo not drawn)	1.45	21.9
O=C(Cn1ncc2c1-c1ccccc1OC2)NCCN1CCN(Cc2ccccc2)CC1	0.985	-0.42
O=C(Cn1nnc(-c2ccc(OCc3ccccc3F)cc2)n1)N1CCOCC1	0.98	-0.198
Nc1c(C(=O)NCc2ccco2)nnn1Cc1ccc(Cl)cc1	1.02	0.209
Cc1sc2ncnc(NCCC3=CCCCC3)c2c1C	0.763	-0.313
CC1CCCN(S(=O)(=O)c2ccc3[nH]c(=O)cc(C(=O)NCCN4CCOCC4)c3c2)C1 (stereo not drawn)	0.886	-1.57
COc1cccc(C2CC(c3cccc(F)c3)n3ncnc3N2)c1 (stereo not drawn)	0.989	-0.382
Cc1cccc(-n2ccnc2SCC(=O)Nc2cccc(Cl)c2)c1	0.731	-0.268
O=C(Cn1nc(Cc2cccnc2)c2ccccc2c1=O)NCCCN1CCCCCC1	1.1	0.137
Cc1ccc(NC(=O)C2CCCN(S(=O)(=O)c3cccs3)C2)c(C)c1 (stereo not drawn)	0.91	-4.06
COc1cccc(-c2nnc(NC(=O)c3ccc(S(=O)(=O)N(C)Cc4ccccc4)cc3)o2)c1	0.103*	-15.1*
O=C(NCc1ccc(Cl)cc1)c1cc2sccc2n1Cc1ccc(F)cc1	0.98	-0.486
Cn1nc(-c2ccccc2F)c2cc(C(=O)NCc3ccc(F)cc3Cl)sc21	0.834	-0.226
CCC1Oc2ccccc2N(CC(=O)N(C)Cc2ccccc2)C1=O (stereo not drawn)	1.09	1.24
CCCNC(=O)Cn1cnc2sc(C(=O)Nc3cc(Cl)ccc3OC)c(C)c2c1=O	0.997	-0.103
Cc1oc(-c2ccccc2F)nc1CN1CCC(C(=O)NC2CCCCCCC2)CC1	0.963	-0.444
COCCCNC(=O)c1csc2c1CCCC2	1.06	2.05
CCOC(=O)c1c(-c2ccc(OC)cc2)csc1NC(=O)CCN1CCOCC1	0.918	-2.29
c1ccc(-c2cc(-c3ccccc3)n(-c3cc(N4CCCCC4)ncn3)n2)cc1	1.02	0.526
COc1ccc(N(CC(=O)O)S(=O)(=O)c2ccc3[nH]c(=O)c(=O)[nH]c3c2)cc1	1.02	0.365
CCSc1nnc(NC(=O)CSc2nnc(CNC(=O)c3ccc(OC)cc3)o2)s1	1.31	3.45
Cc1ccccc1NC(=O)c1nc[nH]c1C(=O)Nc1ccccc1C	0.74	-5.1
Cc1ccc(S(=O)(=O)N2CCC(C(=O)Nc3cc(C)cc(C)c3)CC2)cc1	1.03	1.34
CCOc1ccc(NC(=O)Cn2c(C)cc3ccccc3c2=O)cc1	0.986	-0.308
Clc1ccc(-c2nnc(NCCN3CCOCC3)c3ccccc23)cc1	1.03	0.98
CCCNC(=O)c1cc(=O)n(Cc2cccc(Cl)c2)c2ccccc12	0.953	-0.388
O=C(Nc1ccc(F)c(F)c1)C1CCN(S(=O)(=O)c2cnc[nH]2)CC1	1.09	0.765
Cc1cc2c(cc1C)NC(CC(=O)Nc1ccc(C(F)(F)F)cc1)C(=O)N2 (stereo not drawn)	0.965	-1.79
CCN(CCCNC(=O)c1ccc2nc(-c3ccccc3NC(C)=O)c(=O)[nH]c2c1)Cc1ccccc1	1	0.0508
Cc1cc(Nc2c(C)cccc2C)n2nc(C)nc2n1	0.957	-1.46
COc1ccccc1CNS(=O)(=O)c1ccc2c(c1)CCN2C(C)=O	0.995	-0.161
CN(Cc1ccccc1)c1nc(-c2ccc([N+](=O)[O-])cc2)cs1	0.63	-9.99
CCc1ccc(-c2nc(SCC(=O)NCC3CCCO3)c(-c3ccc(OC)c(OC)c3)[nH]2)cc1 (stereo not drawn)	0.933	-0.281
O=C(CCn1nc(-c2ccc(Cl)cc2)ccc1=O)NCCN1CCCCCC1	1.05	1.01
Cc1ccccc1CN1C(=O)C(C(C)C(=O)NCCC(C)C)Sc2ccccc21 (stereo not drawn)	1.02	0.386
Cc1cc(C)c(C#N)c(SCc2cn3cccnc3n2)n1	0.981	-0.42
CNS(=O)(=O)c1cc(-c2nnc(Nc3ccc(C)cc3)c3ccccc23)ccc1C	0.841	-2.98
CNC(=O)C1CCN(C(=O)c2cnn(-c3ccccc3)c2-n2cccc2)CC1	0.944	-0.427
Cc1ccc(C)c(N2CCN(CC(=O)Nc3ccc4[nH]c(=O)[nH]c4c3)CC2)c1	1.07	1.56
CCOC(=O)N1CCN(C(=O)c2cc(-c3ccc(C)c(C)c3)nc3ccccc23)CC1	0.936	-1.47
COc1ccc(NC(=O)CC2C(=O)N(c3ccc(F)cc3)C(=O)N2Cc2cccs2)cc1 (stereo not drawn)	1	0.0311
CCOc1ccc(NC(=O)C2CCCN(S(=O)(=O)c3c(C)noc3C)C2)cc1 (stereo not drawn)	1.12	1.89
CCc1ccc(NC(=O)CCc2c(C)nc3c(-c4ccc(F)cc4)c(C)nn3c2C)cc1	1.16	2.46
COC(=O)c1cc2ccsc2n1CC(=O)N1CCCc2ccccc21	1.09	2.75
Cc1cccc(CCNC(=O)c2ccc(CNc3c(N4CCC(C)CC4)c(=O)c3=O)cc2)c1	1.03	1.28
Cc1cccc(NC(=O)CN(C)S(=O)(=O)c2cccc3cccnc23)c1C	0.909	-1.08
CC(C)C(O)c1cnc(OCc2ccccc2)nc1OCc1ccccc1 (stereo not drawn)	1.02	0.554
Cc1cc(N2CCOCC2)nc2ccc(NC(=O)CCC(=O)N3CCCCCC3)cc12	0.967	-0.043
Cc1cc(C)cc(-n2ccnc2SCC(=O)Nc2cc(C)on2)c1	0.898	-3.84
COc1cccc(Nc2c3c(nc4ccc(Cl)cc24)CCCC3)c1	0.857	-0.194
CCOc1cc2c(cc1OCC)C(c1cccc3c1OCO3)NCC2 (stereo not drawn)	0.961	-0.658
O=C(Nc1c(-c2cccs2)nc2ccccn12)c1ccccc1F	1.06	2.44
CCOc1ccc(NC2c3ccccc3C(=O)N2c2ccc(C)cn2)cc1 (stereo not drawn)	0.893	-3.5
O=C(O)c1cccc(NC(=O)c2ccc3c(c2)C(=O)N(c2ccccc2)C3=O)c1	1.04	0.0385

# Reformatted as labelled records: 3 of the compounds above.
SMILES: CC(C)C(O)c1cnc(OCc2ccccc2)nc1OCc1ccccc1 (stereo not drawn)
  CBX7 AlphaScr = 1.02; CBX7 AlphaScr z-score = 0.554
SMILES: Cc1cc(N2CCOCC2)nc2ccc(NC(=O)CCC(=O)N3CCCCCC3)cc12
  CBX7 AlphaScr = 0.967; CBX7 AlphaScr z-score = -0.043
SMILES: Cc1cc(C)cc(-n2ccnc2SCC(=O)Nc2cc(C)on2)c1
  CBX7 AlphaScr = 0.898; CBX7 AlphaScr z-score = -3.84

# Next compounds follow.
Molecule	CBX7 AlphaScr	CBX7 AlphaScr z-score
CC(=O)N1CCC2(CC1)CC(=O)c1cc(OCC(=O)NCc3ccccc3Cl)ccc1O2	1.02	0.482
O=C(NCCc1ccccc1)C(Cc1ccccc1)N1C(=O)c2ccccc2C1=O (stereo not drawn)	1.04	1.5
CCc1nc(Nc2nc3ccccc3o2)nc2c1CCCC2	0.918	-1.06
COc1ccc(-c2csc(NC(=O)c3cccc4ccccc34)n2)cc1OC	0.851	-2.97
Cc1ccc(-n2c(-c3ccc(Cl)cc3)nc3c(cnn3-c3ccccc3)c2=O)cc1	0.902	-3.87
Cc1ccc(OCC(=O)Nc2ccc(-c3nc4ncccc4o3)cc2)cc1C	1.03	0.437
NC(=O)c1oc2ccccc2c1NC(=O)c1ccc(S(=O)(=O)N2CCCC2)cc1	1.04	0.678
CC1=Nc2cc(C(=O)NCc3ccccc3)ccc2Sc2ccc(Cl)cc21	0.824	-2.83
Cc1cc(C)c(S(=O)(=O)NCCc2cc3c(C)ccc(C)c3[nH]c2=O)c(C)c1	0.944	-1.09
CCN(CC)S(=O)(=O)c1ccc2c(c1)N(CC(=O)NCc1ccccc1OC)C(=O)CS2	1.05	1.67
COc1ccc(OC)c(NC(=O)CCCNC(=O)Cn2cnc3sc(C)c(C)c3c2=O)c1	0.95	-1.02
Cc1ccccc1Cn1cc(NC(=O)c2cc(-c3cccs3)on2)cn1	0.923	-1.06
COC(=O)c1ccccc1NS(=O)(=O)c1ccc2c(c1)CCN2C(=O)C1CCC1	0.987	-0.427
COc1cc(NC2c3ccccc3C(=O)N2c2ccc(Cl)cc2)cc(OC)c1 (stereo not drawn)	0.727	-7.39
Cc1cc(N2CCN(c3ncccn3)CC2)nc2ccc(NC(=O)c3cncc(Br)c3)cc12	1.02	1.05
Cc1ccc(S(=O)(=O)c2nc(Cc3ccccc3)oc2NCc2ccccc2)cc1	0.908	-0.212
COc1ccccc1CNC(=O)c1ccc2c(c1)ncn2C1CCCC1	0.848	-2.37
CCCCn1c(=N)n(CC(O)COc2ccc(OC)cc2)c2ccccc21 (stereo not drawn)	0.934	-0.428

# Source: PubChem

# A portion of the library (hit frequency here may not be typical).
